Assay outcomes: PubChem, ICCB-Longwood Screening Facility, Harvard Medical School
CapD inh: inhibitors of Bacillus anthracis CapD enzyme | purified CapD enzyme, fluorescence intensity read-out; hits give low values; some hits fall short of the stated cut | AID 492967 | 140,000 compounds, 0.23% hits | z-score (test concentration not listed);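 active = z-score under -4 in either of two replicates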;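 also: stock transfer was 100 nL into about 40 µL; score is relative to mean and spread of the plate; one replicate is shown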
AID504770: growth inhibitors of E. coli YBA685 in a screen for V. cholerae RctB (chromosome II replication) inhibitors | E. coli YBA685 rctB-dependent plasmid, OD600 growth, 3 h; hits give low values | z-score (no concentration beside the values) | 130,000 compounds, 0.27% hits | AID 504770;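 active = z-score under -2 on both plates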;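 also: wells of about 30 µL received 100 nL stock; score is relative to mean and SD of the test wells; the first replicate is given; strong numbers were not always called active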
* hit, by the source's call; i = inactive; / = not tested or not shown; & = joins results of further samples.

Structure	CapD inh	AID504770
CC(=O)C1C(=O)C=C(/C=C/c2ccccc2)CC1c1ccccc1 (stereo not drawn)	-0.67	/
CCN(CC)CCCNC(=O)c1sc2ncnc(N3CCN(c4ccc(OC)cc4)CC3)c2c1C	-1.3	/
CCOC(=O)C1=C(C(F)(F)F)Nc2ncnn2C1c1ccc(F)cc1 (stereo not drawn)	0.18	0.5
CCCNC(=O)c1ccccc1NC(=O)c1ccccc1NS(C)(=O)=O	0.09	-0.05
Cn1nnc2cc(C(=O)Nc3cccnc3)ccc21	/	-1.1
Cc1ncc([N+](=O)[O-])n1CCSc1nc2c(c(=O)n(C)c(=O)n2C)n1Cc1cccc(Cl)c1	0.085	/
CCOC(=O)N1CCC(NC(=O)c2cccc3c2C(=O)N(CCOC)C3)CC1	-0.1	-0.3
COC(=O)Nc1nc2cc(Oc3ccc4ccccc4c3Cl)c(Cl)cc2[nH]1	-0.1	/

Later entries:
Structure	CapD inh	AID504770
CN1CCC(N(C2CC2)S(=O)(=O)c2ccc(NC(=O)Nc3ccc(F)cc3F)cc2)CC1	-0.23	/
CCOC(=O)C1=C(N)n2c(s/c(=C\c3ccccc3I)c2=O)=C(C#N)C1c1ccccc1I (stereo not drawn)	0.29	/
C=CCOc1ccc(C(c2c(C)n(C)n(-c3ccccc3)c2=O)c2c(C)n(C)n(-c3ccccc3)c2=O)cc1	-0.26	/
COc1cc(OC)c(C2C(C#N)=C(N)Oc3n[nH]c(-c4cccc([N+](=O)[O-])c4)c32)cc1OC (stereo not drawn)	-0.17	/
Cc1cc(C(=O)Nc2nn(C)c3ccccc23)no1	-1.6	-0.1
COc1cc(NC(=O)c2sc3nc(C)nc(N4CCN(C)CC4)c3c2C)cc(OC)c1	-0.52	/
COc1cc(/C=C2\SC(NC(C)=O)=NC2=O)c(Br)cc1OC(C)=O	-0.48	/
CCOC(=O)Cn1nnc(N2CCCC2)n1	0.81	/

Next part
Structure	CapD inh	AID504770
CCC(=O)N1c2ccccc2NC2=C(C(=O)CCC2)C1c1ccccc1 (stereo not drawn)	-2.2	-1.3
Cc1ccc(-n2c(O)c(C=Nc3ncnc4nc[nH]c34)c3ccccc3c2=O)cc1C	/	0.3
Cc1cc(C)c(NC(=O)/C=N/OCn2nnc3ccccc3c2=O)c(Cl)c1	/	0.15
COC(=O)c1cc(OC(=O)CCN2C(=O)C3CC=CCC3C2=O)cc(C(=O)OC)c1 (stereo not drawn)	/	0.4
CCC(=O)Nc1cccc(C(=O)N/N=C/c2ccccc2OCC(=O)O)c1	0.36	/
COc1ccccc1NC(=O)C1=C(C)Nc2nc(SC)nn2C1C(C)C (stereo not drawn)	0.56	0.1
O=C(COc1ccc(Cl)cc1Cl)NN1C(=O)c2cccc3c([N+](=O)[O-])ccc(c23)C1=O	-0.15	/
CCOC(=O)C1=CN(c2ccc(OCC)cc2)C=C(C(=O)OCC)C1c1ccc(OC)c(Br)c1	5.2	/

(next part)
Structure	CapD inh	AID504770
CCOc1ccc(NC(=O)CC2CC3CCC2C3)cc1 (stereo not drawn)	1.9	-0.3
Nc1ccc(C(=O)c2ccc3c(c2)OCCO3)cc1N	i	1
COc1ccc(C2(O)CCN(C(=O)c3ccc4c(c3)OCO4)CC2)cc1	/	-0.25
CC(C)CCn1c(=O)c2ccccc2n2c(SCc3cc(Cl)cc4c3OCOC4)nnc12	/	1.1
CNS(=O)(=O)c1ccc2[nH]c(=O)cc(C)c2c1	/	0.45
O=C(COC(=O)c1cccc(Cl)c1)NC12CC3CC(CC(C3)C1)C2	0.41	0.6
Cc1ccccc1NCc1nc[nH]c1C	0.46	-0.95
COc1ccc(C2C(C(=O)Nc3ccc(C)cc3)=C(C)Nc3nnnn32)cc1OC (stereo not drawn)	0.43	/

Remaining list, next part:
Structure	CapD inh	AID504770
COC(=O)CSc1cc(C(C)(C)C)c(O)c(C(C)(C)C)c1	-0.23	-1.1
CCOC(=O)N1CCN(C(=O)c2c[nH]c3ccc(S(=O)(=O)N(C)c4ccc(Br)cc4)cc3c2=O)CC1	2.1	/
COc1ccc(S(=O)(=O)NCc2ccccc2)cc1	-0.65&-0.44	0.35
CCOC(=O)c1ccccc1NC(=O)c1sc(NC(=O)c2ccccc2OC)c(C(=O)OCC)c1C	0.72	/
O=C1CC(C(=O)O)c2ccccc2N1 (stereo not drawn)	/	-0.6
CCC(c1nnnn1Cc1ccco1)N(Cc1cccs1)Cc1cc2c(C)cc(C)cc2n2nnnc12 (stereo not drawn)	/	0.5
c1ccc(-n2ncc3c(OCc4nc5ccccc5s4)ncnc32)cc1	/	0.45
CCc1nnc2c(Nc3ccc(O)cc3)nc3ccccc3n12	-1.4	-3.4

Next compounds
Structure	CapD inh	AID504770
CCOc1cc(-c2cc(I)c(O)c(OC)c2)cc(=O)c2c(C)oc(C)c12	0.62	-1.2
Cc1noc(C)c1/C=N/NC(=O)CC12CC3CC(CC(C3)C1)C2	/	0.9
O=C(O)c1cc(NC(=O)c2cccs2)cc(C(=O)O)c1	0.12	0.4
COc1ccc(Nc2nc(NCCO)c3ccccc3n2)c(OC)c1	/	0.3
COC(=O)c1ccc(NC(=O)C(C)C)cc1	0.42	-0.75
COC(=O)c1ccc(-n2nnnc2SCC(=O)NC(C)(C)C)cc1	0.45	0.1
CCC1CCCCN1C(=O)COc1ncnc2ccccc12 (stereo not drawn)	0.34	0.05
CCOC(=O)c1[nH]c2ccccc2c1NC(=O)c1ccccc1	-0.65	0.55

(next part)
Structure	CapD inh	AID504770
O=C(NC1CCC(O)CC1)c1cc(Cl)c(O)c(Cl)c1 (stereo not drawn)	/	1.3
Cc1snc(SCc2ncc(C(F)(F)F)cc2Cl)c1C#N	0.8	/
COc1ccc(C(=O)Nc2sc3c(c2-c2nc4ccccc4s2)CCCC3)cc1OC	-0.12	/
CC1=C(C(=O)Nc2cc(C)ccn2)C(c2cccc(Oc3ccccc3)c2)C2=C(CCCC2=O)N1 (stereo not drawn)	58	/
COc1ccccc1-n1c(SCC(=O)N2CCCc3ccccc32)nc2c(c1=O)SCC2	0.2	/
COc1cccc(CN(C)CCN)c1	/	-0.25
S=c1nn[nH]n1Cc1cccs1	/	-0.6
O=[N+]([O-])c1cc(C(F)(F)F)cc([N+](=O)[O-])c1Oc1ccc(F)cc1F	-0.14	/

An excerpt of these results, as labelled records:
O=C(NC1CCC(O)CC1)c1cc(Cl)c(O)c(Cl)c1 (stereo not drawn)
  CapD inh: /; AID504770: 1.3
S=c1nn[nH]n1Cc1cccs1
  CapD inh: /; AID504770: -0.6
COc1ccc(C(=O)Nc2sc3c(c2-c2nc4ccccc4s2)CCCC3)cc1OC
  CapD inh: -0.12; AID504770: /
COc1ccccc1-n1c(SCC(=O)N2CCCc3ccccc32)nc2c(c1=O)SCC2
  CapD inh: 0.2; AID504770: /

The results go on.
Structure	CapD inh	AID504770
COCCNC(=O)CCC(=O)N1CCc2cc(S(C)(=O)=O)ccc21	-0.36	/
Cc1cc(=O)oc2cc(OCC(=O)N3c4ccccc4CC3C)ccc12 (stereo not drawn)	6	0.15
COc1ccccc1NC(=O)Nc1nc(CC(=O)NCc2cccs2)cs1	/	-1.4
COc1cccc(C2=NC(C)(C)NC(c3ccccc3O)C2)c1 (stereo not drawn)	0.69	0.9
O=C(CC1Sc2ccccc2NC1=O)NCc1ccccc1 (stereo not drawn)	0.12	-0.3
COc1ccc(CNc2ccc(C(F)(F)F)cc2[N+](=O)[O-])cc1Cl	-1	/
Clc1ccc(SCCCCn2cncn2)cc1	0.17	-1.1
CON(C)C(=O)c1cc(N2CCOCC2)nc(N2CCOCC2)n1	-0.26	/

(listing goes on)
Structure	CapD inh	AID504770
CC(=O)N(Cc1cc2cc(C)c(C)cc2n2nnnc12)CC1COCCO1 (stereo not drawn)	/	-0.4
O=C(CSc1ncnc2nc[nH]c12)N1CCOCC1	-0.085	-2.3
c1ccc(C2CC(c3cccs3)n3ncnc3N2)cc1 (stereo not drawn)	0.025	/
O=C1C2(CCC13COC(c1cc(Br)ccc1O)OC3)COC(c1cc(Br)ccc1O)OC2 (stereo not drawn)	/	0.55
Cc1ccc(S(=O)(=O)NC(=O)Nc2ccc3[nH]c(C(C)(C)C)cc3c2)cc1	0.46	/
Cc1nc(-c2ccccn2)nc(N2CCN(CCO)CC2)c1Cl	-0.23	/
CCOC(=O)C1=C(C)N=c2s/c(=C/c3c[nH]c4ccccc34)c(=O)n2C1c1ccc(OC)c(OCC)c1 (stereo not drawn)	-0.7	/
Cc1c2cnn(-c3ccccc3)c(=O)c2c(C)n1CC(=O)NC(C)C	0.36	-0.4

Further entries follow:
Structure	CapD inh	AID504770
Oc1ccc2c(c1)oc1cc(O)ccc12	47	-1.1
O=S(=O)(c1ccccc1)N(c1ccccc1)c1ccccc1	0.44	-1.1
N#Cc1cn(-c2ccccc2Cl)nc1N	1.4	/
CCOC(=O)C1=C(N)n2c(s/c(=C\c3cccnc3)c2=O)=C(C#N)C1c1cccnc1 (stereo not drawn)	-0.61	/
COC(=O)C1=C(N)Oc2c(c(=O)oc3ccccc23)C1c1cccnc1 (stereo not drawn)	-0.095	-0.55
CCOC(=O)c1c(/N=C/C2=C(O)C(c3ccccc3)CCC2=O)sc(C)c1C (stereo not drawn)	-0.045	0.3
CCOC(=O)CNS(=O)(=O)c1cccc2nsnc12	0.28	/
O=C1C2C3CC4C5C3C1C5C(F)(F)C42 (stereo not drawn)	0.95	-0.65

Further compounds.
Structure	CapD inh	AID504770
Brc1c(-c2ccccc2)nc2ccccn12	2.5	-0.5
CCCCC(CC)Cn1c(-c2nonc2N)nc2ccccc21 (stereo not drawn)	-0.1	/
Cn1nc(C(F)(F)C(F)F)cc1-c1ccccc1O	-0.11	-2.2
O=C(COc1ccc(-n2ccnc2)cc1)Nc1cccc(Cl)c1	/	-0.15
CCCN(c1nc(C)cc(OC)n1)S(=O)(=O)c1ccccc1Cl	-0.48	/
O=C(O)c1ccccc1C(=O)N1CCC(c2nc(-c3cccnc3)no2)CC1	-1.1	/
COC(CNC(=O)c1cc(=O)[nH]c2ccc(Br)cc12)OC	-1.2	0.3
Cc1cc2cc(CNC(=S)NC(C)(C)C)ccc2n1C	-1.5	-0.5

(continued)
Structure	CapD inh	AID504770
CCOC(=O)c1ncoc1-c1ccc(C(F)(F)F)cc1	-0.01	-0.65
c1ccc2c(c1)C(Nn1cnnc1)=N/C2=N\n1cnnc1	/	-1.1
CCn1cc(SCC(=O)N2CCOCC2)c2ccccc21	-0.9	-0.55
Cc1cc(C)n(CC(=O)O)c(=O)n1	/	-0.35
O=C(Nc1cc(C(F)(F)F)cc(C(F)(F)F)c1)c1ccccc1[N+](=O)[O-]	0.3	/
Cn1c(C(=O)O)c(CNCCC2=CCCCC2)c2ccccc21	13	-0.7
Cc1ccc(F)cc1S(=O)(=O)N1CCN(CCN2CCOCC2)CC1	0.45	/
CCN1C(=O)SC(CC(=O)O)C1=O (stereo not drawn)	/	-0.95

The listing continues.
Structure	CapD inh	AID504770
CCCn1c(C)cc(/C=C(\C#N)C(=O)N(CC)c2nc3c(C)cccc3s2)c1C	/	-0.2
O=C(COC(=O)c1ccc(Cl)cc1)NCC1CCCCC1	-0.51	-1.4
Cc1nn(C)c(C)c1NS(=O)(=O)/C=C/c1ccccc1	/	0.15
COc1ccc(C(=O)OCC[N+]2(C)CCOCC2)cc1	-0.21	0.05
CCc1c(C)c(C#N)c2nc3ccccc3n2c1N1CCCC1	0.33	0.75
CC(C)(CO)NC(=S)NCC1CCCO1 (stereo not drawn)	0.23	-0.6
Cc1ccc(Cl)cc1N1CC(O)=C(c2nc3ccccc3c(=O)[nH]2)C1=N	/	-0.6
Cc1cc2nc3s/c(=C\c4ccc(OCc5ccccc5F)cc4)c(=O)n3c2cc1C	0.07	/

A section taken from the entries so far, as a working copy:
Structure	CapD inh	AID504770
CCCn1c(C)cc(/C=C(\C#N)C(=O)N(CC)c2nc3c(C)cccc3s2)c1C	/	-0.2
O=C(COC(=O)c1ccc(Cl)cc1)NCC1CCCCC1	-0.51	-1.4

(listing goes on)
Structure	CapD inh	AID504770
O=C(CN1CCCc2ccccc21)NN1C(=O)NC2(CCCCC2)C1=O	/	-0.75
CC(=O)NC1C(=O)N(c2ccccc2)N=C1C (stereo not drawn)	/	0.15
Cc1nc(SCC(=O)Nc2ccccn2)n[nH]1	-0.98	-0.35
COc1ccc(C2=NN3C(C2)c2cc(OC)ccc2OC3c2ccc(C(C)(C)C)cc2)cc1 (stereo not drawn)	-0.24	/
CNC1(c2nnnn2-c2ccc(Cl)cc2)CCCCC1	-0.34	/
CCCNC(=O)CN1CCN(Cc2ccc(OCCC(C)C)cc2)CC1	/	-0.2
CC1CCCN(S(=O)(=O)c2ccc(N3CCOCC3)nc2)C1 (stereo not drawn)	1.5	-0.65
O=C(Cc1ccccc1)N1CCN(c2cc(C(F)(F)F)nc3ccccc23)CC1	-0.76	2.8

(list continues)
Structure	CapD inh	AID504770
CCOC(=O)C1CCCN(C(=O)c2cc3cc4ccc(OC)cc4nc3o2)C1 (stereo not drawn)	4.2	0.05
Cc1ccc(CNc2ccc3nnc(-c4ccccc4)n3n2)cc1	0.18	0.15
COc1ccc(OCc2nnc(SC(C)C(=O)Nc3ccc(N4CCOCC4)cc3)n2C)cc1 (stereo not drawn)	/	0.3
O=C(Cn1ccc2ccccc21)Nc1cccc(C(F)(F)F)c1	0.09	-0.75
Fc1ccccc1-c1nnc2c3ccccc3nc(Oc3ccccc3)n12	0.67	/
CCOC(=O)Cn1nnc(-c2cccs2)n1	0.32	-0.55
CCCCSc1nnc2c(n1)OC(c1cc(Br)c(O)c(OC)c1)Nc1ccccc1-2 (stereo not drawn)	-1.5	/
